# LANA-H2A inh: blocks KSHV LANA binding to histone H2A/H2B; 320,000 compounds, 0.6% hits; cell-free LANA-H2A/H2B peptide, fluorescence polarization; inhibition, % (concentration not given with the values); AID 2629; Q9QR71; in the data active = inhibition mostly above about 10%, no sharp cut-off; inactive = mostly below about 6.7%;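 note: stock transfer was 7.5 nL into about 10 µL; 0% = median of vehicle wells and 100% = median of positive control wells; one replicate is shown; the record names a cut of 25% in any replicate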
# A1 inh: inhibitors of the anti-apoptotic protein A1, read as caspase activation; MEF A1-2A-BIM cells, Caspase-Glo 3/7 luminescence, 3 h; percent of clofoctol response, vehicle zero; caspase activation, % (concentration not given with the values); 330,000 compounds, 0.066% hits;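 active = over half of replicate activation scores above 10%, or exactly half above 10 with the replicate mean above 10; inconclusive = replicate mean below 10 yet half the replicates above 10; inactive = over half of replicates below 10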;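 note: wells of about 30 µL received 50 nL stock; many hits fall short of the cut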
# Calb FLC: affects C. albicans growth with fluconazole. C. albicans CaCi-2 (fluconazole-resistant clinical isolate) + fluconazole, Alamar Blue growth, 48 h. growth inhibition, % (test concentration not listed). 300,000 compounds, 0.57% hits. AID 1979;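 active = most replicates above 75%; inconclusive = exactly half above 75%; inactive = most below 75%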;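 note: all wells also contain fluconazole at 8 µg/ml as a sub-toxic cotreatment; 0% = median of DMSO wells and 100% = median of geldanamycin control wells; wells of about 8 µL received 7.5 nL stock; the first replicate is given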
# T cruzi inh: blocks replication of Trypanosoma cruzi | T. cruzi beta-gal in NIH3T3, luminescence, 90 h | inhibition, % (concentration not given with the values) | 300,000 compounds, 1.4% hits;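 active = mean inhibition across valid replicates above about 55%, limit read from the data; inconclusive = mean below that limit but half or more replicates reach it; inactive = mean below it, under half of replicates reach it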;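 note: signal also drops with host cell toxicity which is not excluded here; 0% = plate median of DMSO wells and 100% = zero luminescence signal; higher percent means less beta-gal luminescence so fewer parasites; stock transfer was 50 nL into about 50 µL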
# AF4-AF9 inh: blocks AF4 peptide binding to human AF9 | P42568 | AlphaScreen, biotin-AF4 peptide binding to FLAG-AF9 | inhibition, % at 10 µM | 350,000 compounds, 0.47% hits;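 active = every replicate reaching a set inhibition limit, whatever the replicate mean, cut at about 25% in these data; inconclusive = mean inhibition reaches that limit but some replicates miss it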;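 note: 0% = plate neutral control median and 100% = total signal loss; the record names both 10 and 1 µM as test concentration; the first replicate is given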
# Target sequence (P42568 whole entry, looked up): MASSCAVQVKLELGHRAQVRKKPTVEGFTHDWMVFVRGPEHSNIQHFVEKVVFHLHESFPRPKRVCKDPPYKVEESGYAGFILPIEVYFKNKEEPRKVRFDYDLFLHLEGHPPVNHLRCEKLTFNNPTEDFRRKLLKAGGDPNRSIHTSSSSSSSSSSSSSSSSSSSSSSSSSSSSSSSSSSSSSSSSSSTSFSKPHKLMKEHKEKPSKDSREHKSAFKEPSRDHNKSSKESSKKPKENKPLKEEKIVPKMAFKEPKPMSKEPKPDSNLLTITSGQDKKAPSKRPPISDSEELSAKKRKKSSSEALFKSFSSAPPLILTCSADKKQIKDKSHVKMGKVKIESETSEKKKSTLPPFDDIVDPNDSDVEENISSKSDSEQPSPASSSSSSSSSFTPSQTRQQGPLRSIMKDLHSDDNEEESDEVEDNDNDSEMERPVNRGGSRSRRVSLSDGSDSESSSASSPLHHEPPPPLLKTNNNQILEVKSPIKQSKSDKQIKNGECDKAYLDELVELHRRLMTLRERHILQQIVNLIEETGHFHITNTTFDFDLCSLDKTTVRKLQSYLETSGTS
# Beta apoptosis: blocks beta cell apoptosis | protection from apoptosis, % (no concentration beside the values) | AID 435005 | 300,000 compounds, 0.8% hits | INS-1E cytokine-induced death, ATP luminescence, 48 h; percent of positive-control rescue, neutral wells zero;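 active = all replicates at 75% or more, or half of them and the mean; inconclusive = half reach 75% but not the mean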;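 note: 0% = cytokine-treated negative control wells and 100% = positive control rescue; higher means more ATP so stronger rescue from cytokine killing; wells of about 40 µL received 100 nL stock; the first replicate is given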
# RanGTP-Impb inh: inhibitors of RanGTP-importin-beta interaction, primary screen, biochemical, FRET, CFP-Ran, YFP-importin-beta, homogeneous; inhibition, % (test concentration not listed); cell-free CFP-Ran/YFP-importin-beta FRET ratio; 300,000 compounds, 1.1% hits; AID 2216;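 active = most replicates above 15%; inconclusive = exactly half above 15%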;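 note: 0% = DMSO wells and 100% = Ran loaded with GDP instead of GTP; wells of about 40 µL received 100 nL stock; the first replicate is given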
# Vif TR-FRET: inhibitors of Vif binding to APOBEC3G peptide, primary screen, biochemical, TR-FRET, GST-Vif 1-94, biotin-A3G peptide, dose response retest (AID 1117319); 260,000 compounds, 0.57% hits; inhibition, %; hits with a dose series show IC50 in µM; TR-FRET GST-Vif / biotin-A3G peptide binding; higher % means a stronger effect; test concentration not given here; strong numbers were not always called active;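 active = above the screen mean plus three standard deviations and confirmed in dose response; inconclusive = results disagree or hit not tested in dose response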;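 note: Vif residues 1-94 fused to GST binding biotinylated APOBEC3G peptide 110-148; 0% = full assay without inhibitor and 100% = GST in place of GST-Vif; retest series ran down from 100 µM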
# An asterisk follows results filed as active; u = inconclusive; x = no result given.
SMILES,LANA-H2A inh,A1 inh,Calb FLC,T cruzi inh,AF4-AF9 inh,Beta apoptosis,RanGTP-Impb inh,Vif TR-FRET
CCCC(c1nnnn1CS(=O)(=O)c1ccc(C)cc1)N1CCN(c2ccccc2)CC1 (stereo not given),-2.0,-0.6,-9,16,x,x,-0.2,14%
CC(NC(=O)Cn1cnc2c1c(=O)n(C)c(=O)n2C)c1ccccc1 (stereo not given),-4.6,-0.7,u,-8,x,-8,-1.8,1%
CCN1CCN(C(=O)CCn2c(=O)c3cccn3c3cccnc32)CC1,4.6,1.3,34,1,1.4,1,-2.1,2%
Cc1c(C(=O)NCc2cccnc2)oc2ccc(S(=O)(=O)N3CCCC(C)C3)cc12 (stereo not given),-2.9,-0.4,5,13,x,x,0.0,16%
Cc1csc2c(NCCCN3CCOCC3)ncnc12,-3.0,0.9,-13,-3,-2.8,2,-1.6,6%
O=C1c2ccccc2C(=O)N1CCSc1ncn[nH]1,-0.8,0.3,2,2,x,1,0.9,u
CC(C)Cn1c(CCC(N)=O)nnc1SC(C)C(=O)Nc1ccc2c(c1)OCO2 (stereo not given),3.4,-0.8,x,x,-2.4,-2,x,0%
O=c1cc(C(F)(F)F)oc2c1ccc1ccccc12,2.7,0.2,1,-13,x,-1,u,7%
O=C(CCCn1c(=O)[nH]c2ccc(Br)cc2c1=O)NCc1ccc(Cl)cc1,-1.5,0.9,0,-10,-3.0,-5,-0.1,x
Cn1c(-c2ccccc2)c(C(=O)CCl)c2ccccc21,x,x,45,71*,0.8,x,1.5,-4%

# Only AF4-AF9 inh and Beta apoptosis, for 2 of the compounds above:
SMILES | AF4-AF9 inh | Beta apoptosis
O=c1cc(C(F)(F)F)oc2c1ccc1ccccc12 | x | -1
CCN1CCN(C(=O)CCn2c(=O)c3cccn3c3cccnc32)CC1 | 1.4 | 1

# The list goes on.
SMILES,LANA-H2A inh,A1 inh,Calb FLC,T cruzi inh,AF4-AF9 inh,Beta apoptosis,RanGTP-Impb inh,Vif TR-FRET
Cc1cc2oc(C(=O)NCCc3ccc(S(N)(=O)=O)cc3)cc(=O)c2cc1C,-5.9,0.2,-6,-13,0.3,5,-1.9,-7%
O=C1Nc2ccc(Br)cc2/C1=C/C(=O)c1ccc2c(c1)OCO2,3.7,u,-10,7,-2.5,13,1.0,-1%
COC(=O)c1sc2cnccc2c1N,1.5,-1.4,0,2,x,-14,8.0,-2%
Cc1cccc(NC(=O)c2ccc3c(=O)n4c(nc3c2)CCCCC4)n1,0.6,-3.2,9,-1,-13,x,2.0,-12%
Cc1noc(C)c1CSc1nnc2scc(-c3ccc(Cl)cc3)n12,-4.1,1.1,-35,24,x,1,-2.3,2%
Cc1ccc(CNC(=O)CCC(=O)Nc2nnc(C3CCCCC3)s2)cc1,2.0,-0.5,8,-12,-1.2,0,4.1,15%
Cc1ccc(Cl)c(OCC(=O)NN2CCN(C)CC2)c1,-5.3,1.7,-4,14,3.0,-1,3.9,u
COCCNC(=O)c1onc(CSc2cc(C)ccc2C)c1C(=O)O,6.7,0.1,1,-5,-1.2,2,-4.3,-2%
C=CCc1cccc2cc(C(=O)N(CC)CC)c(=O)oc12,-2.1,0.6,12,4,x,-10,0.8,-5%
COc1ccc(NC(=O)C2CCCN2C(=O)Nc2ccc(OC)cc2)cc1 (stereo not given),x,x,-4,-4,-2.6,x,0.8,x
CC(C)OC(=O)CSc1nnc(-c2ccc([N+](=O)[O-])cc2)o1,-3.8,1.0,-2,-6,1.4,-1,x,13%
COc1ccccc1NC(=O)CSc1ccc(-c2cccs2)nn1,-2.4,0.9,6,11,2.0,1,6.3,-1%
CC1CCCCC12NC(=O)N(CC(=O)NCc1ccco1)C2=O (stereo not given),3.4,-1.7,x,x,-3.1,2,x,x
CCOC(=O)c1cc(CC)sc1NC(=O)C1CC1,2.7,-0.4,-7,35,6.8,0,u,-2%
Cc1ccccc1-n1c(=O)[nH]c(=O)c2c(N)c(C(=O)c3ccc(Cl)cc3)sc21,5.0,-0.7,5,11,x,6,-2.9,x
CN(CC(=O)NCCc1ccc(Cl)cc1)S(=O)(=O)c1ccc2c(c1)c(=O)n(C)c(=O)n2C,-3.6,0.4,0,-12,-6.2,-3,-0.1,-3%
CCOc1ccc(-c2nnn(CCC(=O)O)n2)cc1OC,-2.8,-0.3,-2,-8,x,-1,2.9,-1%
CN(C)S(=O)(=O)c1ccc(C(=O)NCCN=C2NS(=O)(=O)c3ccccc32)cc1,-1.5,0.1,-6,4,-3.0,-4,3.0,-3%
COc1cc(/C=C/C(=O)O)cc(Br)c1O,-0.9,0.6,2,0,-0.5,5,3.5,14%
Nc1cc(N)cc(C(=O)OCC(=O)Nc2cc(S(=O)(=O)N3CCCCC3)ccc2Cl)c1,0.6,-0.1,9,12,14,-1,1.1,x
COCCCNC(=O)CSc1ccc(Cl)cc1,-1.5,1.4,13,-11,x,x,-3.3,9%
COc1ccccc1C(CC(=O)N1CCCC1)c1ccc2c(c1)OCO2 (stereo not given),7.0,-0.2,-4,14,-0.4,-4,2.1,x
Cc1ccc(-c2nc(C#N)c(NCc3cccc4c3OCO4)o2)cc1,3.2,-0.4,-7,24,x,2,-0.9,-4%
COc1ccc(C(=O)c2c[nH]c3ccccc23)cc1,2.2,-4.9,-12,3,x,-10,u,2%
O=C(N/N=C/c1ccncc1)c1ccc(OCc2ccccc2)cc1,5.8,-1.8,-2,-14,2.2,3,0.3,u
CCCCN1C(=O)C(O)(c2ccccc2)c2cc(Br)ccc21 (stereo not given),3.7,-1.4,42,7,0.8,0,u,-6%
Cc1ccc(Cn2nnnc2CN2CCC(NC(=O)C(C)(C)C)CC2)cc1,-3.7,0.2,-9,-3,-2.4,8,u,7%
O=C(NC(=S)Nc1ccc(F)c(Cl)c1)C1CC1,0.2,-0.7,11,-16,-0.2,-1,3.6,1%
CC(=O)c1cc(OC(=O)N2CCOCC2)ccc1OC(=O)N1CCOCC1,-6.9,-0.1,1,13,x,1,1.1,-5%
Cc1ccc(NS(=O)(=O)c2ccc(CCC(=O)NCCO)cc2)cc1,-4.0,0.0,112*,-7,x,4,-0.2,3%
COc1ccc(/C=C\C(=O)CC(O)(c2ccccc2)C(F)(F)F)cc1 (stereo not given),-4.8,0.4,u,17,x,x,2.9,u
CC1CN(c2nc3c(c(=O)[nH]c(=O)n3C)n2Cc2ccccc2F)CC(C)O1 (stereo not given),0.2,-0.2,18,1,x,3,0.5,2%
O=C(NCC(=O)N(c1ccccc1F)C(C(=O)NCC1CCCO1)c1ccccc1)c1ccco1 (stereo not given),-0.7,0.9,18,-9,x,-1,u,2%
COc1cccc(NC(=S)N2CCn3c(nc4ccccc43)C2)c1,0.0,-0.5,6,-18,-2.1,-7,-1.4,4%
NS(=O)(=O)c1cccc(Nc2nc3ccccc3nc2NS(=O)(=O)c2ccc(Cl)cc2)c1,0.7,-0.1,x,x,3.5,-1,x,4%
Cc1ccc(C)c(NC(=O)CSc2sc3c(O)cc(=O)[nH]c3c2C#N)c1,2.3,0.1,-3,2,1.9,3,-0.6,x
Clc1ccc(C2=Nn3c(nnc3-c3n[nH]c4c3CCC4)SC2)cc1Cl,-1.4,-0.3,-7,33,x,-32,0.5,-2%
CC(C)c1cc(Nc2cccc(O)c2)cc(C(C)C)c1O,1.3,-0.4,0,31,x,-2,-4.1,x
O=C(Oc1ccccc1Cl)c1ccc(-n2cncn2)nc1,0.3,1.3,10,-11,x,-6,5.0,1%
O=C(O)Cn1nc(-c2ccccc2)oc1=O,-4.3,0.1,-5,-5,x,-1,-3.5,6%
COc1ccccc1/C=C/CN1CCC(n2nccc2NC(=O)C2CC2)CC1,-4.9,1.5,7,20,1.0,1,1.7,x
O=C(CSc1nnc(-c2ccccc2F)o1)NC1CCCCC1,-0.5,0.8,-9,-6,2.3,7,0.2,-6%
O=C(CSc1ccc(-c2ccc(F)cc2)nn1)NCCc1ccccc1,3.8,1.1,1,-13,-2.3,0,2.4,-9%
CC(=O)Nc1ccc(S(=O)(=O)N2CCN(CCC#N)CC2)cc1,3.6,0.6,-1,-3,-5.7,-2,-3.7,-1%
CCOc1ccccc1N(C)C(=O)c1ccc2c(=O)n3c(nc2c1)CCCCC3,7.1,-1.0,8,0,3.8,-9,1.2,x
Cc1cccc(CCNC(=O)CCS(=O)(=O)c2cc3c(cc2C)NC(=O)CO3)c1,-0.5,-0.3,-11,3,1.7,4,-0.4,x
CCCCNC(=O)/C=C1\Sc2ccccc2NC1=O,-1.3,1.3,-2,-5,x,-1,32*,x
O=[N+]([O-])c1ccc(O)c(/C=N/n2cnnc2)c1,-3.0,1.2,4,-14,x,-3,-1.8,x
O=S(=O)(NCCc1ccccc1)c1ccc(Br)s1,-2.7,0.2,-8,-9,-0.3,-1,0.6,x
CCn1c(SCC(=O)NNC(=O)c2ccc(C)cc2)nnc1-c1ccncc1,3.7,-0.8,-8,-25,x,-4,-2.6,3%
# More entries follow.
SMILES,LANA-H2A inh,A1 inh,Calb FLC,T cruzi inh,AF4-AF9 inh,Beta apoptosis,RanGTP-Impb inh,Vif TR-FRET
O=C(c1ccccc1Cl)N1CCN(S(=O)(=O)N2CCCCC2)CC1,15,-0.7,-4,4,10,-3,-0.5,x
CC(C)Nc1nc(Oc2ccc(Cl)cc2)cc(C(F)(F)F)n1,-3.2,0.1,-1,6,x,26,1.3,3%
CNC(=O)Nc1ccccc1NC(=O)NC,3.4,-0.3,0,-14,x,-1,u,21%
COc1ccc(C(=O)NCC2OCCc3ccccc32)cc1OC (stereo not given),0.5,-0.3,12,-4,-0.1,-3,-1.0,2%
Cc1ccc(CN2CC(C(=O)N3CCN(c4ccccc4Cl)CC3)CC2=O)cc1 (stereo not given),-1.3,-0.9,x,x,-1.0,7,x,-4%
COCCOC(=O)c1[nH]c2c(c1C)C(=O)CC(c1ccc(F)cc1)C2 (stereo not given),-3.6,0.4,10,-17,-1.0,8,-1.0,11%
Cc1ccc(Cn2nc(C)c(C(=O)NCC(c3cccs3)N3CCOCC3)c2Cl)cc1 (stereo not given),-8.7,0.2,-9,-3,2.1,0,x,x
CN1C(=S)SC(/[N+]([O-])=C/c2ccc(Cl)cc2)C1(C)C (stereo not given),5.5,0.0,-16,-6,0.0,-6,-0.9,u
CCOc1cc(/C=C/C(=O)c2ccc3c(c2)OCCO3)ccc1OCC(=O)N(C)C,0.6,-0.3,0,-21,3.3,-41,-3.6,x
COC(=O)c1sc(C(F)(F)F)c(-c2ccccc2)c1S(=O)(=O)NC(C)(C)C,-2.3,0.0,4,9,x,1,4.4,u
COC(=O)c1[nH]c2ccccc2c1Sc1ccccc1,1.5,0.1,7,-2,1.2,-3,-5.8,-9%
Cc1cccc(N2CCN(Cc3oc(CO)cc(=O)c3O)CC2)c1C,1.6,0.9,-5,9,x,0,-1.8,3%
CC1C/C(=N/N=C2/NC(=O)CS2)CC(C)(C)C1 (stereo not given),2.5,0.3,0,-27,x,-1,u,1%
COc1ccc(CNC(=O)COC(=O)c2cc(S(=O)(=O)N3CCOCC3)ccc2O)cc1OC,-4.0,0.1,x,x,2.7,-4,x,0%

# High-throughput results: PubChem, several laboratories
